Bioassay records (PubChem)
AF4-AF9 inh = blocks AF4 peptide binding to human AF9; AlphaScreen, biotin-AF4 peptide binding to FLAG-AF9; inhibition, % at 10 µM; actives 0.47% (n = 350,000); AID 651704;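 active = every replicate reaching a set inhibition limit, whatever the replicate mean, cut at about 25% in these data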;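 note: 0% = plate neutral control median and 100% = total signal loss; the record names both 10 and 1 µM as test concentration; the first replicate is given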
Target sequence (P42568 whole entry, looked up): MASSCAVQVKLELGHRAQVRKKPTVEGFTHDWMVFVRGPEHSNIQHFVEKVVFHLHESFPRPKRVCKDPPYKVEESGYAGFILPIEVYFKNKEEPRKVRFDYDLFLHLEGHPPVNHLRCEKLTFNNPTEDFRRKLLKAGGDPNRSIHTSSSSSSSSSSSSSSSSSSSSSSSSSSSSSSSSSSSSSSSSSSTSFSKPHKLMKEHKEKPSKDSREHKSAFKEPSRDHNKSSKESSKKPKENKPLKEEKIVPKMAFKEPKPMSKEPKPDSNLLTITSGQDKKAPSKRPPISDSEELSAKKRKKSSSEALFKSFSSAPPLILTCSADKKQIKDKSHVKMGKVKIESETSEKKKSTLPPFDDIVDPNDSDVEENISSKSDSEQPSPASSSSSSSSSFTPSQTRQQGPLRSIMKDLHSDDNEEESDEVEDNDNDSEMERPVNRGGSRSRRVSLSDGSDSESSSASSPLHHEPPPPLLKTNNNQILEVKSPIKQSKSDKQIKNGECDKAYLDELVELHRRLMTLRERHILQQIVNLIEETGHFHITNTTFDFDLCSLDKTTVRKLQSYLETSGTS
RanGTP-Impb inh = disruptors of Ran-importin-beta complex formation – biochemical, FRET, CFP-Ran, YFP-importin-beta, homogeneous, primary screen; cell-free CFP-Ran/YFP-importin-beta FRET ratio; inhibition, % (no concentration beside the values); actives 1.1% (n = 300,000); AID 2216;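 active = most replicates above 15%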;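 note: 0% = DMSO wells and 100% = Ran loaded with GDP instead of GTP; wells of about 40 µL received 100 nL stock; the first replicate is given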
rRNA inh HTS = selective bacterial rRNA inhibition in E. coli | actives 1.6% (n = 350,000) | AID 720706 | GFP signal change (wild-type ribosome), % (no concentration beside the values) | E. coli WT GFP vs humanized-ribosome RFP mutants, fluorescence, 24 h; hits give low values; DMSO median 0, no signal -100;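 active = significant combined selectivity score with lowered wild-type GFP, culture density cut under 30%, mutant RFP and density less affected; inactive = any of these conditions unmet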; note: one replicate is shown; some compounds called inactive have numbers as strong as hits
Beta apoptosis = blocks beta cell apoptosis | actives 0.8% (n = 300,000) | AID 435005 | protection from apoptosis, % (concentration not given with the values) | INS-1E cytokine-induced death, ATP luminescence, 48 h; percent of positive-control rescue, neutral wells zero;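 active = all replicates at 75% or more, or half of them and the mean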;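 note: 0% = cytokine-treated negative control wells and 100% = positive control rescue; higher means more ATP so stronger rescue from cytokine killing; wells of about 40 µL received 100 nL stock; the first replicate is given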
FGF22 binding = FGF22 (human) thermal shift binding; recombinant FGF22 thermal shift, SYPRO orange fluorescence; percent of sucrose octasulfate shift, DMSO zero; calls only at 9.99 µM; actives 1.5% (n = 340,000); AID 651658;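 active = melting point raised past a set limit in the mean and every replicate; three in four hits are not shown here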
Target sequence (Q9HCT0 whole entry, looked up): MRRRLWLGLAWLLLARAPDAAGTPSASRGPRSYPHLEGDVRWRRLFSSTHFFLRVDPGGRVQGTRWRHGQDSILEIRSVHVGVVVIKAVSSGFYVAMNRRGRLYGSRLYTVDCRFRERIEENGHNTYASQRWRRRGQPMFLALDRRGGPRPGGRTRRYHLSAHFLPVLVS
T cruzi inh = blocks replication of Trypanosoma cruzi. T. cruzi beta-gal in NIH3T3, luminescence, 90 h. actives 1.4% (n = 300,000). inhibition, % (no concentration beside the values);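 active = mean inhibition across valid replicates above about 55%, limit read from the data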;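 note: signal also drops with host cell toxicity which is not excluded here; 0% = plate median of DMSO wells and 100% = zero luminescence signal; higher percent means less beta-gal luminescence so fewer parasites; stock transfer was 50 nL into about 50 µL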
Calb FLC = C. albicans growth modulation with fluconazole; actives 0.57% (n = 300,000); AID 1979; growth inhibition, % (test concentration not listed); C. albicans CaCi-2 (fluconazole-resistant clinical isolate) + fluconazole, Alamar Blue growth, 48 h;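 active = most replicates above 75%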;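 note: all wells also contain fluconazole at 8 µg/ml as a sub-toxic cotreatment; 0% = median of DMSO wells and 100% = median of geldanamycin control wells; wells of about 8 µL received 7.5 nL stock; the first replicate is given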
ALR H2O2 inh = inhibitors of human sulfhydryl oxidase ALR. purified ALR, DTT oxidation, H2O2 HRP-luminol luminescence. inhibition, % (concentration not given with the values). actives 3.8% (n = 290,000);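 active = mean and each replicate at 75% or more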;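 note: stock transfer was 7.5 nL into about 7.5 µL; 0% = neutral wells and 100% = wells with inactivated enzyme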
Target sequence (P55789 whole entry, looked up): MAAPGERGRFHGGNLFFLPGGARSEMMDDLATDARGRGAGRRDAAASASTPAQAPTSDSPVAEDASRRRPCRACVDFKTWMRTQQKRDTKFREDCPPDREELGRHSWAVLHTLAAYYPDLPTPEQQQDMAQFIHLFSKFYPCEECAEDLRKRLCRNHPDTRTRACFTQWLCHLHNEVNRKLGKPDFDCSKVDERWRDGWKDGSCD
rRNA inh HTS OD600 = further read-out of rRNA inh HTS, marked with its call; OD600 change, %; measured here: OD600 growth;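 optical density of the mix in the first replicate; 0 = DMSO median and -100 = no signal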
rRNA inh HTS RFP = recorded beside rRNA inh HTS, whose call it bears; RFP signal change, %; measured here: RFP humanized mutant strains;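 first replicate; 0 = DMSO median and -100 = no signal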
* hit, by the source's call; i = inactive; . = no result given. A portion of the library; count on the stated rates, not on these rows.

SMILES	AF4-AF9 inh	RanGTP-Impb inh	rRNA inh HTS	rRNA inh HTS OD600	rRNA inh HTS RFP	Beta apoptosis	FGF22 binding	T cruzi inh	Calb FLC	ALR H2O2 inh
CCc1cc(=O)[nH]c(SCc2ccc(C)cc2)n1	-1.9	-0.7	-10	-20	-8.1	-3	i	2	-3	2
Cc1noc(NC(=O)c2ccc(Cl)c(Cl)c2)c1Cl	0.0	1.8	-29	-27	-10	-3	i	13	89*	39
CCCCCCSc1ccc([C@@H]2[C@@H]3C(=O)N(C)C(=O)[C@@H]3[C@]3(C(=O)OC)CCCCN23)cc1OC	2.3	-2.0	7	8	0.8	9	i	11	9	0
CCOC(=O)c1oc2ccccc2c1NC(=O)c1ccccc1OC	-4.3	-2.0	.	.	.	2	i	7	-18	-1
COc1ccccc1NC(=O)CSc1nccn1Cc1ccc(F)cc1	6.7	0.8	-24*	-14*	0.2*	-13	i	-8	8	-18
CCCCN(C(=O)c1ccc(N2CCCC2=O)cc1)c1c(N)n(CC(C)C)c(=O)[nH]c1=O	-2.5	.	6	13	-2.1	-2	i	.	.	15
Cc1cccc(NC(=O)CSc2nnc(C)n2Cc2ccccc2)c1	.	-2.2	.	.	.	.	.	15	-10	-19
CCOCCSc1nnc2nc(C)cc(C)n12	.	-0.9	.	.	.	-2	.	-7	-1	1
CCOc1ccc(NC(=O)Nc2ccc3c(c2)nnn3C)cc1	5.5	-3.9	13	7	7.3	-5	i	2	-13	99*
CC(=O)Nc1sc(NC(=O)c2ccco2)nc1-c1cccs1	0.5	-0.5	5	1	-1.1	3	i	-1	12	.
COC(=O)c1c(C)[nH]c(C(=O)C(C)OC(=O)C2CC2)c1C (stereo not drawn)	0.4	.	3	1	-0.2	10	i	.	.	-1
CCOC(=O)c1c(C)[nH]c(C(C)=O)c1C	.	-0.7	.	.	.	-8	.	-25	-6	-5
Cn1nc(-c2ccc(C(=O)NCCO)cc2)c2ccccc2c1=O	-1.8	2.9	-2	-2	1.7	2	i	-20	-18	-7
CC(C)(C)OC(=O)N1CCC(NC(=O)c2[nH]cnc2C(=O)N[C@@H](Cc2ccccc2)C(=O)OCc2ccccc2)CC1	5.5	1.9	12	-1	0.8	-10	i	-16	-8	.
CCOc1ccc(S(=O)(=O)N2CCC(C(=O)N3CCN(c4ccccc4)CC3)CC2)cc1	1.4	5.7	4	5	-3.3	1	i	-10	-2	.
COc1cc(NC(=O)Cc2ccc(F)cc2)cc(OC)c1OC	-0.5	0.5	3	1	-2.4	0	i	-18	5	-22
O=C(OCCCCN1C(=O)c2ccccc2C1=O)c1ccc(S(=O)(=O)N2CCCC2)cc1	.	-2.2	.	.	.	-4	.	7	1	-5
COC(=O)c1ccc(Sc2ccc(F)cc2)c(N)c1	1.1	4.2	-49	-66	-16	-7	i	-4	0	3
CNC(=O)c1ccc(NC(=O)C2CCN(S(=O)(=O)c3cccc(C(F)(F)F)c3)CC2)cc1	-7.6	.	1	12	1.9	-2	i	.	.	-4
CC(=O)Nc1cccc(C(=O)OCC(=O)c2ccc(S(=O)(=O)N3CCCCC3)cc2)c1	-0.1	-5.8	6	16	2.7	-3	i	6	-3	-19
CCOc1cc(S(=O)(=O)N(CC)CC)c(OCC)cc1-n1cnnn1	-2.1	5.9	-13	-1	-0.3	.	i	10	11	.
COc1cc(-c2noc(C)c2/C=C/c2ccc(OC(C)=O)cc2)cc(OC)c1OC	-0.7	0.3	8	2	3.2	15	i	35	21	3
Cc1cccc(N/C=C/C(=C(C#N)C#N)N(C)C)c1	.	8.4	.	.	.	-8	.	9	1	20
O=C(c1ccco1)N1CCN(C(=O)C23CC4CC(CC(C4)C2)C3)CC1	-1.1	7.7	9	2	1.0	1	i	-1	-9	-4
CCOC(=O)NC(=O)c1cn(Nc2ncc(C(F)(F)F)cc2Cl)c(=O)[nH]c1=O	-6.0	-0.8	4	5	-2.7	2	i	-15	-2	-4

More records:
SMILES	AF4-AF9 inh	RanGTP-Impb inh	rRNA inh HTS	rRNA inh HTS OD600	rRNA inh HTS RFP	Beta apoptosis	FGF22 binding	T cruzi inh	Calb FLC	ALR H2O2 inh
CCC(=O)Nc1nnc(S(=O)(=O)N(CC(C)C)c2ccccc2)s1	-3.2	2.9	7	5	-7.4	-2	i	-14	-5	-2
Cn1c(SCC(=O)c2ccc(F)cc2)ncc(C(=O)Nc2ccccc2)c1=O	0.0	1.4	3	12	-2.5	.	i	-3	9	-17
O=C(CC1C(=O)NCCN1C(=O)c1ccc([N+](=O)[O-])cc1)Nc1cccc(Cl)c1 (stereo not drawn)	-1.4	1.9	-5	4	-3.1	-4	i	0	1	-6
CCC(=O)NC(=S)Nc1cccc(NC(=O)CC)c1	.	-3.9	.	.	.	-1	.	-18	-1	1
O=C(NCC1CCCO1)c1ccc(CS(=O)(=O)c2ccc(Br)cc2)o1 (stereo not drawn)	2.0	-2.1	3	7	-0.6	-5	i	-1	5	.
CCOc1ccc2[nH]c(C)c(CN(C)C)c(=O)c2c1	6.4	5.5	1	0	-1.3	-3	i	6	2	-3
Cc1cccc(N(CC(=O)NCc2ccccc2)C(=O)CCC(=O)Nc2nccs2)c1	2.4	-0.9	4	4	-4.4	3	i	-3	3	1
Cc1cc(NS(=O)(=O)c2c(C)c(C)cc(C)c2C)no1	-4.3	-1.4	10	2	-0.5	-3	i	-11	5	1
O=C(NC(O)C(=O)c1ccccc1)c1ccc(F)cc1 (stereo not drawn)	2.0	2.3	5	14	-2.2	-7	i	-7	-10	.
CN(C)/C=C(\C(=O)c1ccc(F)cc1F)c1nnnn1-c1ccccc1	.	7.9	.	.	.	.	.	-4	-6	-4
Cc1cc(C)c(NC(=O)CNC(=O)CN(C)Cc2ccc(Br)s2)c(C)c1	-4.3	.	1	-23	1.1	0	i	.	.	.
NC(=O)C1(N2CCCCC2)CCN(C(=O)CSc2nc3ccccc3[nH]2)CC1	.	2.8	.	.	.	0	.	16	-9	1
Cc1ccc(N2C(=O)C3ON(c4ccccc4)C(c4ccncc4)C3C2=O)c(C)c1 (stereo not drawn)	.	-0.8	.	.	.	.	.	-6	-6	-23
COc1cc(OC)c2c(-c3ccccc3)cc(=O)oc2c1C(CCN1CCN(c2ccccc2)CC1)c1ccc(N(C)C)cc1 (stereo not drawn)	18	-0.3	4	15	10	1	i	18	-20	.
CCn1c(SCCC(=O)Nc2ccccc2)nnc1-c1ccc(OC)cc1	.	4.9	.	.	.	1	.	-5	1	1
COc1ccc(/C=C2\CCCc3c2nc2ccccc2c3C(=O)O)cc1OC	.	37*	.	.	.	-3	.	-7	0	-22
CC(=O)N1CCc2cc(S(=O)(=O)NCCC(=O)Nc3cccc(C)c3C)ccc21	.	-0.5	.	.	.	-2	.	-10	-9	1
Cc1ccc(N(CN2C(=O)C3CC=CCC3C2=O)C(=O)c2ccco2)cc1Cl (stereo not drawn)	.	-1.8	.	.	.	0	.	-12	2	-4
C=C1c2cc(OC)ccc2NC(=O)N1CC	.	-1.3	.	.	.	-4	.	-4	0	-30
COc1ccccc1C(=O)NCC(=O)OCC(=O)Nc1nnc(-c2ccccc2)o1	-3.8	.	3	9	-2.0	0	i	.	.	.
O=C(COC(=O)c1ccc(O)cc1)Nc1ccc(S(=O)(=O)N2CCOCC2)cc1	-0.5	.	2	2	0.4	-11	i	.	.	6
Fc1ccc(OCCCCCN2CCCC2)cc1	5.6	-2.4	-4	-10	0.0	-4	i	28	-3	-9
COc1ccc(CCN2C(=O)CC(NNC(=O)c3ccccc3Br)C2=O)cc1OC (stereo not drawn)	1.9	2.8	.	.	.	6	i	2	25	-2
O=C1C(Cc2ccc(O)cc2)NC(=S)N1C1CCCCC1 (stereo not drawn)	1.7	1.1	-9	-7	-1.8	-8	i	12	7	.
CN(C)S(=O)(=O)N1CCN(S(=O)(=O)c2ccc3ccccc3c2)CC1	-1.0	6.7	11	11	1.9	10	i	-9	-10	-10

Later entries
SMILES	AF4-AF9 inh	RanGTP-Impb inh	rRNA inh HTS	rRNA inh HTS OD600	rRNA inh HTS RFP	Beta apoptosis	FGF22 binding	T cruzi inh	Calb FLC	ALR H2O2 inh
Cn1ccnc1SCC(=O)Nc1ccc(Oc2ccccc2)cc1	.	2.6	.	.	.	0	.	-4	-3	99*
Cc1nn(-c2ccc(F)cc2)c(Cl)c1/C=N/NC(=O)c1cccs1	.	0.8	.	.	.	19	.	17	-2	-4
Cc1ccc(OCCC(=O)OCC(=O)c2ccc3c(c2)NC(=O)CO3)cc1	0.7	.	4	7	0.1	6	i	.	.	0
Cc1nc2scc(-c3ccccc3)c2c(=O)n1N	.	1.5	.	.	.	0	.	-1	-11	-16
C1=Nc2ccccc2CN1c1ccccc1	.	2.7	.	.	.	-3	.	5	-5	16
CCOCCCn1c(SCc2ccccc2)nnc1-c1ccncc1	2.4	4.6	5	5	0.2	-1	i	4	3	1
C=CCn1c(COc2ccccc2)nnc1SCc1ccc(C#N)cc1	.	0.2	.	.	.	-2	.	14	23	.
Cc1ccc(C)c(CN2CCNC2=O)c1	.	4.0	.	.	.	-4	.	-2	-3	-31
CC(=O)c1cnn(-c2ccc(Cl)c(Cl)c2Cl)c1C	-1.6	-2.6	-22	-27	-5.7	0	i	-9	-13	-3
CCCN(CCC)CCNC(=O)C1CC(=O)N(c2ccc(OC)cc2)C1c1ccc(OC)cc1 (stereo not drawn)	.	-0.3	.	.	.	.	.	4	-15	-12
Brc1ccc(-c2nnc3n2-c2ccccc2CC3)cc1	.	-4.4	-12	-18	-3.4	1	.	-1	-2	0
CCCCCn1c(=O)c(C(=O)c2ccccc2)nc2ccccc21	.	2.3	-31	-28	-2.2	3	.	4	8	-15
O=S(=O)(/N=C(/Nc1cccc2ccccc12)c1ccccc1)c1ccc(Br)cc1	-1.7	-0.8	9	29	-0.7	5	i	5	4	-4
COc1ccccc1N(C(=O)CNC(=O)c1ccco1)C(C(=O)NC1CCCCC1)c1ccncc1 (stereo not drawn)	0.5	1.2	1	7	-0.6	1	.	-12	-6	.
CC(C)c1ccc(C(=O)NCCCN2CCN(CCCNC(=O)c3ccc(C(C)C)cc3)CC2)cc1	5.4	0.7	-4	-17	7.6	22	i	39	-1	39
O=C1CCN=C(Nc2ccc(F)cc2)N1Cc1ccccc1	.	-0.3	.	.	.	6	.	23	13	-3
CCOC(=O)CC(NS(=O)(=O)c1ccc(OC)c(OC)c1)c1cccc([N+](=O)[O-])c1 (stereo not drawn)	0.9	2.4	-3	4	-3.4	0	i	-11	-1	.
O=[N+]([O-])c1ccc(CNCc2cc(Cl)ccc2O)cc1	2.6	.	-17	-8	0.2	0	i	.	.	.
CC(C(=O)NC1CC1)c1ncc(C(F)(F)F)cc1Cl (stereo not drawn)	-1.5	0.9	11	13	0.5	.	i	-10	3	-7
Cc1cccc(OCC(=O)Nc2ccc(N3CCCC3)cc2)c1C	.	-0.7	.	.	.	.	.	41	0	-5
O=c1cc(O)c(-c2ccc(Cl)c(Cl)c2)c(Cl)[nH]1	1.8	0.4	-27*	-20*	-10.0*	3	i	3	-20	-7
CCn1c(-c2ccsc2)nc2c1c(=O)[nH]c(=O)n2Cc1ccccc1	.	-4.8	.	.	.	3	.	10	-2	-12

By substructure: those above containing a cyano group (two)
SMILES	AF4-AF9 inh	RanGTP-Impb inh	rRNA inh HTS	rRNA inh HTS OD600	rRNA inh HTS RFP	Beta apoptosis	FGF22 binding	T cruzi inh	Calb FLC	ALR H2O2 inh
Cc1cccc(N/C=C/C(=C(C#N)C#N)N(C)C)c1	.	8.4	.	.	.	-8	.	9	1	20
C=CCn1c(COc2ccccc2)nnc1SCc1ccc(C#N)cc1	.	0.2	.	.	.	-2	.	14	23	.
